Tg IFNy HTS: inhibitors of Toxoplasma gondii growth with IFN-gamma | Toxoplasma gondii growth in IFN-gamma-treated host cells; active compounds read low; reference of the scale not given here | activity change, negative = inhibition, %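 (about 20 µM by stock and volumes)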 | actives 3.8% (n = 69,000) | AID 1259416;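 active = below -70%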;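 also: host cells are HeLa cells infected with Toxoplasma gondii; parasite growth read as luciferase light; one replicate is shown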
* hit, by the source's call; i = inactive; & = joins results of further samples.

SMILES | Tg IFNy HTS
Cc1ccc(-c2nc(CNS(=O)(=O)c3ccc(C(C)C)cc3)c(C)o2)cc1 | -105*
Fc1cnc(N2CCO[C@@H]3[C@H]2CC[C@H]3Oc2ncccc2F)nc1 | -68
O=C(Cn1ncc2c(N3CCCC3)ncnc21)Nc1ccc(F)cc1F | 55
Cc1nonc1C1CCCN1C(=O)CN1CCOc2ccccc2C1 (stereo unspecified) | -19
N#Cc1c(NC(=O)C2CC(c3cccc(Br)c3)=NO2)sc2c1CCC2 (stereo unspecified) | -20
O[C@H]1CCN(CC2CCOC2)[C@H]1Cc1ccccc1 (stereo partly specified) | 13
Cc1cc(C)c2[nH]c(C(=O)N(CCO)Cc3nccs3)c(C)c2c1 | 1
O=C(Nc1cccc(F)c1)c1nc(Nc2ccccc2)c2ccccc2n1 | 66
Cc1nc(C2COCCN2C(=O)CC(C)C)cs1 (stereo unspecified) | i
COc1ccc2c3c(n(C)c2c1)[C@H](CO)N(C(=O)Nc1ccc(F)cc1)CC31CN(C(=O)Cc2ccncc2)C1 | 20
Cn1nc(C2CCN(C(=O)c3cccnn3)CC2)n(Cc2ccccc2)c1=O | 6
Fc1cccc(CN2CCN(Cc3cccc(-n4cccn4)c3)CC2)c1 | -6
Cn1ccnc1SCCNc1nc(-c2ccccc2)nc2c1CCNC2 | -22
Cn1c2c(c(=O)n1C)CN(S(=O)(=O)c1ccccc1)CCC2 | -75*
COCCN(C)C(=O)c1nc2c(s1)CCCN2CCOC | -23
Cc1oc(C2CCN(S(=O)(=O)c3ccccc3F)CC2)nc1C(=O)N(C)C | 17
O=C(C[C@H]1C=C[C@H](NC(=O)Nc2ccc3c(c2)OCO3)[C@@H](CO)O1)NCCCN1CCOCC1 | -15
CN1CCC(N(Cc2ccncc2)C(=O)Nc2ccc3c(c2)OCO3)CC1 | 15
CCOC(=O)c1cc(C#N)c(Oc2ccc(C)cc2)nc1C(F)(F)F | -33
O=C(c1cc2c(s1)CCCC2)N1CCc2[nH]cnc2C12CCCCC2 | 178
CC(=O)N1[C@H](CO)[C@@H](c2ccccc2)C12CN(Cc1ccc(Cl)cc1)C2 | 38
Cc1cc(Nc2ccccn2)cc(C2CCCN(S(=O)(=O)c3ccc(F)cc3)C2)n1 (stereo unspecified) | -65
CCOc1cc(N2CCOCC2)c(OCC)cc1NS(=O)(=O)C(C)C | 79
O=C(Nc1ccc(-c2nc(-c3ccccc3)co2)cc1)Nc1ccccc1Br | 24
CSc1ccccc1OCc1cc(C(=O)N2CCC(c3ccccc3Cl)C2)no1 (stereo unspecified) | 184
C[C@H]1[C@H](C)CC[C@]2(C(=O)O)CC[C@]3(C)C(=CCC4[C@@]5(C)C[C@@H](O)[C@H](O)[C@@](C)(CO)C5[C@H](O)C[C@]43C)[C@H]12 (stereo partly specified) | -28
CC1CCN(c2ncnc3c2cnn3CC(=O)Nc2ccc(Cl)cc2)CC1 | -41
C[C@H]1CN([C@@H](C)CO)C(=O)CCCn2nncc2CO[C@H]1CN(C)Cc1ccccc1C(=O)O | -50
COc1nc2ccccc2cc1-c1cc(F)cc(F)c1O | 82
CC(C)NC(=O)N1[C@H](CO)[C@H](c2ccccc2)C12CN(C(=O)Cc1cccnc1)C2 | 13
CCN1C(=O)CCc2cc(NC(=O)COc3ccc(F)cc3)ccc21 | 138
COCCC(=O)c1cc(-c2cnc(NCc3ccccc3)nc2)cn1C | 2
CC(C)(C)OC(=O)N1CCCC1C1CCc2ccccc2C1=O (stereo unspecified) | 5
CN(C(=O)c1nc2ccccc2[nH]c1=O)C1Cc2ccccc2C1 | 6
CC1(C)CC(=O)C(SC(F)(F)F)C(=O)C1 | 12
C/C(=C\C(=O)Nc1ccccc1C(=O)O)c1ccc2ccccc2c1 | 97

Quoted from the listing.
Tg IFNy HTS, `CC1CCN(c2ncnc3c2cnn3CC(=O)Nc2ccc(Cl)cc2)CC1` → -41
Tg IFNy HTS, `CC(C)NC(=O)N1[C@H](CO)[C@H](c2ccccc2)C12CN(C(=O)Cc1cccnc1)C2` → 13
Tg IFNy HTS, `CSc1ccccc1OCc1cc(C(=O)N2CCC(c3ccccc3Cl)C2)no1` (stereo unspecified) → 184
Tg IFNy HTS, `COc1nc2ccccc2cc1-c1cc(F)cc(F)c1O` → 82
Tg IFNy HTS, `C[C@H]1[C@H](C)CC[C@]2(C(=O)O)CC[C@]3(C)C(=CCC4[C@@]5(C)C[C@@H](O)[C@H](O)[C@@](C)(CO)C5[C@H](O)C[C@]43C)[C@H]12` (stereo partly specified) → -28
Tg IFNy HTS, `CCN1C(=O)CCc2cc(NC(=O)COc3ccc(F)cc3)ccc21` → 138
Tg IFNy HTS, `C[C@H]1CN([C@@H](C)CO)C(=O)CCCn2nncc2CO[C@H]1CN(C)Cc1ccccc1C(=O)O` → -50

Additional results.
SMILES | Tg IFNy HTS
CC(C)COCC1CN(C(=O)Cc2cccs2)Cc2cncn2C1 (stereo unspecified) | 3
O=C(CCc1ccc(-c2ccc(Cl)cc2)[nH]1)N1CCCn2cncc2C1 | 9
CC(C)NC(=O)CC1CC2(CCN(Cc3cnn(C)c3)CC2)Oc2ccccc21 (stereo unspecified) | 39
COc1ccc(OC)c(NC(=O)c2nnn(Cc3nc(-c4ccc(OC(C)C)cc4)oc3C)c2C)c1 | 117
CSc1ncccc1C(=O)N(C)Cc1nc(C)no1 | -35
CC(=O)N1CC2(C1)[C@@H](c1ccc(-c3cccc(C#N)c3)cc1)[C@@H](CO)N2CCC(F)(F)F | 43
O=C(C[C@@H]1CC[C@H](NC(=O)c2ccc3c(c2)OCO3)[C@H](CO)O1)NCc1ccc(Oc2ccccc2)cc1 | -28
COc1cc2c(cc1OC)C(C)N(C(=O)c1sc(-c3cnccn3)nc1C)CC2 (stereo unspecified) | -16
COC(=O)c1cccc(COC(=O)CNC(=O)c2cccs2)c1 | -1
O=C(CSc1nnc(-c2ccccn2)c(-c2ccccn2)n1)c1ccc(Cl)s1 | 224
Cc1cc(CN2C[C@H](OCC3CCOCC3)[C@@H]3COC[C@@H]32)oc1C | -2
CCc1nnc(CN(CC)S(=O)(=O)NCc2ccccc2)o1 | -33

5 structures out of the list, ordered by count of non-hydrogen atoms, largest number first.
SMILES | Tg IFNy HTS
O=C(C[C@@H]1CC[C@H](NC(=O)c2ccc3c(c2)OCO3)[C@H](CO)O1)NCc1ccc(Oc2ccccc2)cc1 | -28
COc1cc2c(cc1OC)C(C)N(C(=O)c1sc(-c3cnccn3)nc1C)CC2 (stereo unspecified) | -16
O=C(CCc1ccc(-c2ccc(Cl)cc2)[nH]1)N1CCCn2cncc2C1 | 9
Cc1cc(CN2C[C@H](OCC3CCOCC3)[C@@H]3COC[C@@H]32)oc1C | -2
CSc1ncccc1C(=O)N(C)Cc1nc(C)no1 | -35

Remaining list, next part:
SMILES | Tg IFNy HTS
CCCCn1ncc(C)c1NC(=O)c1sc2ncn(C)c(=O)c2c1C | -8
O=c1ccc2c([nH]1)CCC(NCc1ccc3c(c1)OCO3)C2 (stereo unspecified) | 28
CCN(Cc1ccc(Cl)cc1)C(=O)Cc1nn[nH]n1 | 6
CCS(=O)(=O)c1ccc(O)c(NC(=O)CSCC(=O)O)c1 | 36
O=C(C[C@H]1CC[C@@H]2[C@H](COC[C@@H](O)CN2Cc2ccc(C(F)(F)F)cc2)O1)N1CCc2ccccc2C1 | 31
CO[C@H]1CN(C)C(=O)c2cc(NC(=O)c3cccc(F)c3)ccc2OC[C@@H](C)N(C)C[C@H]1C | 8
COc1ccc(-c2nc(C(=O)NC(C)CN3CCOCC3)cs2)cc1 (stereo unspecified) | 26
CCn1cnnc1CN(C)C(=O)c1scc2c1CCCC2 | 18
CC(=O)NCCc1csc(C2CCCN(C(=O)/C=C/c3ccccc3)C2)n1 (stereo unspecified) | 22
CNC[C@H]1Oc2c(N)cccc2C(=O)N([C@@H](C)CO)C[C@@H]1C | 4
Cn1c(=O)n(C)c2cc(Cn3cnc(-c4ccccc4)c3C3CC3)ccc21 | -59
Cc1cccc2[nH]c(COCC(=O)N3CCC4(CN(C)C(=O)O4)C3)nc12 (stereo unspecified) | -4
Cc1cccnc1CCn1cnc(-c2ccccc2)c1-c1cccc2nonc12 | -3
OC(CC#CCN1CCCC1)(c1ccccc1)C1CCCCC1 (stereo unspecified) | -8
COC(=O)c1cc2n(n1)CCCN(C(=O)CC(=O)Nc1cccc(C)c1)C2 | 3
CC(C)C(=O)N1CC[C@H](OCc2ccncc2)[C@@H](Cc2ccccc2)C1 | -64
C[C@@H](NC(=O)C[C@H]1C=C[C@H](NS(=O)(=O)c2cccc(F)c2)[C@@H](CO)O1)c1ccccc1 | -36
CCCNC(=O)N1CC(=O)N2[C@@H](CO)[C@H](c3ccc(C#Cc4cccc(OC)c4)cc3)[C@@H]2C1 | -43
CCNC(=O)C[C@H]1CC[C@H]2[C@@H](COC[C@@H](O)CN2C(=O)C2CCCC2)O1 | -2
O=C(NCCCc1ccccn1)c1ccc(N2CC(O)C2)nc1 | -48
CCN(CC)C(=O)[C@@H]1C[C@H](N)CN1C(=O)/C=C/c1ccccc1 | -3
Cc1ccc(Cl)c(CN2CCCC(Cn3ccnc3C)C2)c1F (stereo unspecified) | 6
COCCN1CCC2(CC1)CC1(CCN(C(=O)Nc3ccccc3)CC1)N(C)C2=O | -4
Fc1ccccc1Cc1noc(CN2CCC(C3CCCCC3)C2)n1 (stereo unspecified) | 7
Cc1cccc(-c2nc(Cn3nnc(-c4nc(-c5ccc(Br)cc5)no4)c3C)c(C)o2)c1 | 3
O=C(CSC1=NCCN1)C1COc2ccccc2O1 (stereo unspecified) | 16
Cc1ccc2c(C(O)CN3CCC4(CC3)CC(O)c3ccccc3O4)c[nH]c2c1 (stereo unspecified) | 29
Nc1nc(NCCNc2ncc(-n3ccnc3)c(-c3ccc(Cl)cc3Cl)n2)ccc1[N+](=O)[O-] | -69
N#C[C@@H]1[C@H](c2ccc(-c3cccc(F)c3)cc2)[C@@H](CO)N1C(=O)NC1CCCC1 | -45
Cc1nc2nnc3ccc(C(=O)NCCN(C)C)cc3c2n1CC1CCCO1 (stereo unspecified) | 2
Cn1c(-c2ccccc2)cnc1NC(=O)c1cccn(CC(=O)N2CCCC2)c1=O | 19
O=C(c1cc(N2Cc3ccccc3C2)ccn1)N1CCOCC1 | -49
COCCO[C@@H]1CCN(C(=O)c2cccs2)[C@H]1Cc1ccccc1 | -34
O=C(OCC#CCSc1nnc(-c2ccccc2)o1)c1ccco1 | 2
O=S(=O)(NCCc1csc(-c2ccc(Cl)cc2)n1)c1ccc2c(c1)CCCC2 | -35
NCCCC(O)(P(=O)(O)O)P(=O)(O)O | 19
Cc1c(CN(C)C(=O)CCn2c(C)cccc2=O)[nH]c2ccccc12 | -1
O=C(COC(=O)c1cnccn1)c1ccc(C2CCCCC2)cc1 | 31
Nc1nnc(Cc2nnc(N)s2)s1 | 15
COc1ccc2nc(CCn3cnnc3)[nH]c2c1 | 4
COCC(=O)N1CCC2(CC1)Nc1ccc(C)c(C)c1-n1cccc12 | 22
CCCNC(=O)N1[C@@H](CO)[C@@H](c2ccccc2)C12CN(C(=O)C1CCCCC1)C2 | 16
O=C(O)C(c1ccccc1)n1cccc1 (stereo unspecified) | 11
N#Cc1c(OCC(F)(F)F)ccc(Sc2ncccn2)c1OCC(F)(F)F | 20
Cc1cccc2nc(C(=O)N3CCC(O)(CN(C)C)C3)cn12 (stereo unspecified) | -1
CCCCC(=O)O[C@]1(C(=O)CO)CC[C@H]2[C@@H]3CCC4=CC(=O)CC[C@]4(C)[C@H]3[C@@H](O)C[C@@]21C | -2
CCOc1ccc(-c2cc3c(=O)n(Cc4nc(-c5ccccc5C)oc4C)ccn3n2)cc1Cl | 46
COc1cc(OC)c2c(OC)c(-c3ccc4c(c3)OCO4)c(=O)oc2c1 | -69
O=C(NCc1cccnc1-n1cnc2ccccc21)c1scc2c1OCCO2 | -4
Cc1noc(C)c1S(=O)(=O)N(C)C[C@H]1OCc2cn(nn2)CCCC(=O)N([C@@H](C)CO)C[C@@H]1C | 73
CCOc1ccc(-c2nc(Cc3noc(-c4ccccc4OC)n3)c(C)o2)cc1 | -60
CO[C@H](CN(C)Cc1ccc(-c2ccccn2)cc1)[C@H](C)CN(C(=O)Nc1ccc(F)cc1)[C@H](C)CO | 92
O=C(NCCN1CCOCC1)c1csc(-c2ccc(N3CCCC3)nc2)n1 | -100*
C[C@@H]1CN([C@@H](C)CO)C(=O)c2cc(NC(=O)C3CCCCC3)ccc2O[C@H]1CN(C)C(=O)Nc1ccc(C(F)(F)F)cc1 | -11
COCC(=O)Nc1ccccc1-c1ccc(C(C)N2CCCC2)cc1 (stereo unspecified) | 17
Cc1cc(C)cc(N2CCN(Cc3cnn(C)c3C3CC3)CC2=O)c1 | -2
CN1C(=O)c2cc(NC(=O)Cc3cccs3)ccc2OC[C@@H]2O[C@@H](CC(=O)NCCc3ccncc3)CC[C@@H]21 | 6
O=C(c1ccc(F)cc1)N1C[C@@H]2N[C@H](C1)C2c1ccc(-c2cccnc2)cc1 (stereo partly specified) | -4&-13
Cc1ccc(SCCCN(C)Cc2cc3n(n2)CCCNC3)cc1 | -45
CSc1nn(CSc2n[nH]c(-c3ccccc3F)n2)c(=S)s1 | -19

Next section.
SMILES | Tg IFNy HTS
CCOCc1nnn2c1CN(C1CCOCC1)CCC2 | 1
COc1ccc(NC(=O)CSCC(=O)O)cn1 | -7
CC(C)c1ccc(C(C)NC(=O)c2ccc(=O)n(CC(=O)NC3CCCC3)c2)cc1 (stereo unspecified) | 33
CCOc1ncccc1-c1cc(Cl)ccc1O | -69
CN(c1ccccc1C(=O)NCc1ccco1)S(C)(=O)=O | 20
CCCn1ccnc1CN(C)Cc1ccc(-n2cccn2)cc1 | -2
CCCN1CCc2nc(SCc3nc(-c4ccccc4OC)oc3C)[nH]c(=O)c2C1 | 14
CN1CCN(C(=O)CN2C(=O)CCc3cc(S(=O)(=O)N4CCCCC4)ccc32)CC1 | 9
CNC(=O)CN1CCCC12CCN(C(=O)C1CCCC1)CC2 | -3
O=C(NC1CCCC1)[C@@H]1[C@@H](CO)[C@@H]2Cn3c(cccc3=O)[C@@H]2N1CCc1ccccc1 | -13
Cc1nc(=O)n(CC(=O)N2CCC(COc3ccc(Cl)cc3)CC2)c(C)c1C | -3
Fc1cnc(N2CC[C@@H]3C[C@H](c4ccncn4)O[C@H]3C2)nc1 | -48

Screens as filed in PubChem.

These rows are one share of the data; count on the stated rates, not on these rows.
